Screens: PubChem, several laboratories
Mtb bLac sens: beta-lactam sensitization of Mtb H37Rv; M. tuberculosis H37Rv growth with meropenem, percent inhibition; hits of this screen are not shown here; inhibition, % at 25 µM; 330,000 tested, 0.27% active;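 active = about 74% or more and at least 40 points above the plate without the antibiotic, then above 30% in a dose series; inconclusive = first-round hits that could not be retested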;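 also: growth measured after seven days incubation then overnight dye step; 0% = bacteria only wells and 100% = bacteria with antibiotic; twin plates without the antibiotic show which effects depend on it; some results filed as inactive read as strong as hits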
RecA intein inh: inhibitors of M. tuberculosis RecA intein splicing. P9WHJ3. cell-free RecA intein splicing, fluorescence. inhibition, %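 (about 9 µM by stock and volumes)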. 290,000 tested, 0.75% active. AID 2221; in the data active = inhibition above about 30%; inconclusive = no clear call, values can overlap the other calls;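 also: 0% = vehicle wells and 100% = reference inhibitor control wells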
Target sequence (P9WHJ3 whole entry, looked up): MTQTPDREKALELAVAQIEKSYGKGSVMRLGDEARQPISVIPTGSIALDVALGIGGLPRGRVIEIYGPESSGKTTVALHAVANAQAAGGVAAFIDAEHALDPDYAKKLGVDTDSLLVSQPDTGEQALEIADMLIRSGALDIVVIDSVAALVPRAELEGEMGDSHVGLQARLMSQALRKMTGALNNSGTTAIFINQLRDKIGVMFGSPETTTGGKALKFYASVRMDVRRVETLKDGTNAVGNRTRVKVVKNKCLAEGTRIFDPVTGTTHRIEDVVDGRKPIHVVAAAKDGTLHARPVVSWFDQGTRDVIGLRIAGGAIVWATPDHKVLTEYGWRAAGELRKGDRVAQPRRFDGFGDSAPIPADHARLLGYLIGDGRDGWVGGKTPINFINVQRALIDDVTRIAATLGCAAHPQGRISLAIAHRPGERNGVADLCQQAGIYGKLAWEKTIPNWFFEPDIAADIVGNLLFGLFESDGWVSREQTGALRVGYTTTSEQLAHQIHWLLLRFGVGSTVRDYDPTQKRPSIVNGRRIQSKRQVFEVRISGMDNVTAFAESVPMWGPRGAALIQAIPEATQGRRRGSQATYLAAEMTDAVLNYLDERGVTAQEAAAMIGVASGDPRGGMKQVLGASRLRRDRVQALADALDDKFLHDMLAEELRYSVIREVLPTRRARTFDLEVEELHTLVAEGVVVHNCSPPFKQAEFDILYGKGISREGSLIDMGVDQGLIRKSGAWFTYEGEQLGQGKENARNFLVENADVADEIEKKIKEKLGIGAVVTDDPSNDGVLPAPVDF
Mtb H37Rv: M. tuberculosis H37Rv growth inhibitors, H37Rv strain (AID 1626) | 220,000 tested, 0.95% active | one-dose inhibition, % at 10 µM; IC50 in µM for titrated hits | M. tuberculosis H37Rv growth inhibition; higher % means a stronger effect;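 active = confirmed in a dose series; inconclusive = inhibition above 80% but not taken into the dose series; inactive = below 80% or under 30% at every dose of the series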;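 also: bacteria incubated seven days before Alamar blue readout; 0% = bacteria only wells and 100% = bacteria with antibiotic wells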
YopH inh: inhibitors of Yersinia enterocolitica YopH tyrosine phosphatase; fluorescence Ex485/Em525; inhibition, %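 (about 10 µM by stock and volumes)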; 140,000 tested, 0.16% active;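 active = inhibition of 50% or more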;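 also: controls were vehicle for no effect and minimum signal wells for full effect; inactives centre near -20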
Arbovirus anti: arbovirus infection inhibition; arbovirus infection cell-based antiviral screen; inhibition, % at 10 µM; 200,000 tested, 0.37% active; AID 1251;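 active = inhibition from about 30%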;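 also: bluetongue infection of BSR cells; cell survival read as ATP light after 72 h; 0% = infected wells without compound and 100% = uninfected wells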
Arbovirus anti repeat: recorded beside Arbovirus anti, whose call it bears; inhibition, %; measured here: 10K subset replicate screen; many hits read low in the repeat;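 first of two repeat runs on a subset; 0% = infected and 100% = uninfected wells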
Active calls of the source: *; i = inactive; ? = inconclusive; · = not tested or not shown; & = joins results of further samples. Not all compounds are listed, so the mix of outcomes need not match the whole.

SMILES	Mtb bLac sens	RecA intein inh	Mtb H37Rv	YopH inh	Arbovirus anti	others
CCN1C(=O)S/C(=C/c2ccc(Sc3nc4ccccc4[nH]3)o2)C1=O	1	1.4	-3%	-31	1
COc1ccc(C(=O)Nc2ccccc2C(=O)N/N=C/c2ccncc2)cc1OC	0	-0.3	-4%	·	·
CCc1ccccc1N1CCN(S(=O)(=O)c2ccc(F)c(C)c2)CC1	0	0.5	-2%	-31	4
O=C(CSc1nc2c(c(=O)[nH]1)CCC2)Nc1cccc(Cl)c1	-3	0.7	-11%	-49	10
Cc1ccc(S(=O)(=O)N(C)C)cc1NC(=O)C(C)NC(C)c1cccs1 (configuration not stated)	12	-2.5	·	·	·
O=C(CN(c1ccc(F)cc1)S(=O)(=O)c1ccc2c(c1)OCCO2)N1CCOCC1	-4	1.7	4%	-43	0	Arbovirus anti repeat=2
COc1ccc(NCc2nnc(SCc3ccc(Cl)cc3)n2-c2ccccc2)cc1	0	19	35%	-27	-17
O=C(COC(=O)Cc1c[nH]c2ccccc12)Nc1ccccc1	5	0.9	-2%	-28	-2
Cc1ccc(C(=O)NCC(=O)N2CCc3ccccc3C2)cc1C	-3	-11	·	·	·
Cc1cc(/C(=N/O)C(C)(C)NO)ccc1Cl	10	-1.0	5%	-27	12
CC(=O)n1c2c(c3ccccc31)OC(N)=C(C#N)C2c1ccc(C(C)C)cc1 (configuration not stated)	6	9.2	3%	-8	8
CCCNC(=O)c1ccc2c(=O)n3c(-c4ccc(C)cc4)csc3nc2c1	16	-7.9	-10%	·	·
Cn1cccc1CC(=O)N/N=C/c1ccc([N+](=O)[O-])cc1	-4	3.7	-6%	·	·
COc1cccc(NC(=O)CN(C)C(=O)c2cc(S(=O)(=O)N3CCCCC3)ccc2Cl)c1	0	0.2	·	·	·
Nc1cc(OC(=O)c2c(F)cccc2Cl)nn1S(=O)(=O)c1ccccc1	1	18	·	·	·
CC1(C)CC(=O)C(C2C3=C(CC(C)(C)CC3=O)Oc3ccccc32)C(=O)C1 (configuration not stated)	-1	0.1	2%	·	·
Cc1nc(-c2ccc(NC(=O)c3cccs3)cc2)cs1	-8	-3.5	8%	-13	-10
Fc1ccc(/C=N/NC(=S)Nc2ccc(Cl)cc2)cc1F	7	2.5	6%	-27	-2
CC(C)c1ccc(NC(=O)C(=O)C2C(=O)Nc3ccccc32)cc1 (configuration not stated)	20	-1.0	23%	·	12
CCC(=O)OC1(c2cccc(C)c2)CC(C)N(C)CC1C (configuration not stated)	-9	-2.5	-9%	-40	6
COC(=O)Cn1c(=O)c2c(nc(Br)n2Cc2ccccc2Cl)n(C)c1=O	0	-0.6	-8%	-38	-1
COc1ccc(C2c3ccsc3CCN2C(=O)NC(C)(C)C)cc1 (configuration not stated)	-6	1.6	-8%	·	·
COc1cc(S(=O)(=O)N(Cc2ccccn2)Cc2ccccc2Cl)ccc1-n1cnnn1	-4	1.5	4%	15	9
O=C(Cn1cnc([N+](=O)[O-])n1)N/N=C/c1ccc2ccccc2c1	95	0.6	5%	-30	0
CCCOc1ccc(CC(=O)NNC(=S)Nc2ccccc2)cc1Br	-15	8.0	-13%	-33	1
CC(C)(C)NC(=O)c1ccccc1-c1nc(-c2ccccc2Cl)no1	-1	0.3	5%	4	-3
CC12CN3CC(C)(CN(C1)C3c1ccc3c(c1)OCO3)C2 (configuration not stated)	-6	·	-10%	·	-1
O=C1c2cccc3c(N4CCOCC4)c([N+](=O)[O-])cc(c23)C(=O)N1c1cccc2ccccc12	99	-0.2	6µM*	19	-30
CC(=O)Nc1ccccc1-c1nc2ccc(C(=O)N3CCN(c4cc(C)ccc4C)CC3)cc2[nH]c1=O	1	3.8	18%	-54	-14
CCOc1cccc(N2C(=O)CC(N3CCC(C(N)=O)(N4CCCCC4)CC3)C2=O)c1 (configuration not stated)	-20	-3.0	-14%	-21	-4
O=C(NCCCN1CCN(c2cccc(Cl)c2)CC1)c1nc(-c2ccncc2)no1	-4	-2.4	-5%	8	3
O=C(CNC(=O)[C@@H]1Cc2ccccc2CN1)NC1CCCC1	7	3.4	·	·	·
O=c1cc(-c2ccccc2Cl)oc2c(NS(=O)(=O)c3cccs3)ccc(O)c12	-5	16	-4%	·	·
CC(C)CCN(C(=O)c1csnn1)C(C(=O)NC1CCCC1)c1ccc(F)cc1 (configuration not stated)	3	1.7	·	·	·
CC(C)NC(=O)Cn1nnc(-c2cccc(NC(=O)c3ccccc3F)c2)n1	0	-0.6	-11%	-39	1
COc1cc(/C=N/Nc2nc3ccccc3o2)cc(OC)c1O	14	-7.9	-8%	-30	-7
CCOC(=O)C1CCN(c2c(N3CCCCCC3)c(=O)c2=O)CC1	2	2.5	-4%	-21	19
O=C(O)C1CCCCC1C(=O)NCCCn1ccnc1 (configuration not stated)	-11	0.3	-5%	-17	6
Cc1ccc(OCC(=O)NNC(=O)C2CSC3(C)CCC(=O)N23)cc1 (configuration not stated)	-12	-3.7	·	·	·
CCOC(=O)c1sc2ncn(CC(=O)N(CC)CC)c(=O)c2c1C	-1	5.9	-12%	-36	6
O=C(NCCS(=O)(=O)N1CCN(c2cccc(Cl)c2)CC1)c1ccco1	0	-1.6	·	·	·
C/C(CCc1oc2c(Br)cc(Br)cc2c1-c1ccc(C)o1)=N\O	8	4.5	16%	-5	3
CCNC(=O)CNC(=O)c1nn(Cc2ccccc2)c(=O)c2ccccc12	2	1.2	·	·	·
O=C(CN(c1ccccc1Cl)S(=O)(=O)c1ccccc1)N/N=C/c1ccccc1C(=O)O	2	-0.3	-1%	·	4
Cc1cc(OCC(=O)Nc2ccccn2)c2c(C)cc(=O)oc2c1	4	-4.5	·	·	·
O=S(=O)(c1ccc(Cl)cc1)N1CCC(c2nc3ccccc3[nH]2)CC1	-2	4.1	·	·	·
O=C(CN(C(=O)c1csnn1)c1cccc(C(F)(F)F)c1)NCCc1ccccc1	4	0.2	·	·	·
CC(=O)c1nn(-c2ccc(Cl)cc2)cc1C(=O)c1ccccc1	-1	-1.6	·	·	·
CCCCCC(=O)NC(=S)Nc1cccc(-c2nc3ncccc3o2)c1	-4	·	-11%	·	·
Cc1cc(C=O)c(C)n1-c1sc2c(c1C(=O)O)CCCC2	-7	0.9	-8%	-30	10
COC(=O)c1ccc(S(=O)(=O)N2CCCN(Cc3ccccc3)CC2)n1C	-9	-3.3	0%	·	·
Cc1ccc(N2CCN(S(=O)(=O)c3ccc(F)c(C)c3)CC2)c(C)c1	-4	6.4	-7%	2	-4
Cc1ccc(OCCCCCN2CCOCC2)cc1	-4	0.5	·	·	·
CNC(=O)c1sc(N2N=C3/C(=C/c4ccccc4)CCCC3C2c2ccccc2)nc1C (configuration not stated)	83	-9.4	7%	-14	-22
Nc1cncc(C(=O)O)c1	-2&-2	0.9&1.1	2%&-4%	·	-3
COc1ccc(CN(C)C(=O)C2CSC3(C)CCC(=O)N23)cc1 (configuration not stated)	-8	-0.8	·	·	·
O=c1c2ccccc2n(CC(O)CN2CCCCC2)c2ccccc12 (configuration not stated)	-8	i	-1%	·	·
CSc1snc(SCC(N)=O)c1C#N	-8	1.5	-4%	-18	5
CCCC(=O)Nc1cc(OC)c(OC)cc1C(=O)O	6	-4.3	3%	-29	0
CC1(C)Cc2nc(NCCCO)c(C#N)cc2CO1	-4	-3.6	1%	-47	-6
Further compounds follow.
SMILES	Mtb bLac sens	RecA intein inh	Mtb H37Rv	YopH inh	Arbovirus anti	others
COc1ccc(C(=O)Nc2ccc3c(c2)C(=O)N(C)C3=O)cc1OC	-5	3.2	·	·	·
O=C(Nc1ccncc1)c1cccc2ccccc12	-5	-0.6	-6%	·	·
Cc1ccc2cc(C)c3nnc(SCC(=O)Nc4nc5c(s4)CCCC5)n3c2c1	·	·	-4%	-32	-5
CC(=O)N1CCc2cc(S(=O)(=O)NC(C(=O)N3CCN(c4ccccc4F)CC3)C(C)C)ccc21 (configuration not stated)	0	-1.7	·	·	·
CC(=O)N1c2ccc(S(=O)(=O)N(C)CC(=O)NC3CCCCC3C)cc2CC1C (configuration not stated)	-7	-0.2	·	·	·
CC1CN(CC(=O)NCc2ccc(F)cc2)CC(C)O1 (configuration not stated)	-8	-1.9	·	·	·
CN(Cc1ccccc1)c1cc(Cl)nc(N)n1	-14	-2.2	5%	·	-9
CC1(c2ccccc2)NC(=O)N(CC(=O)Nc2ccccc2N2CCCC2)C1=O (configuration not stated)	-2	-5.1	·	·	·
CCOC(=O)N1CCN(CC(=O)N2c3ccccc3Sc3ccccc32)CC1	-1	-2.7	·	·	·
Cc1ccc(-n2c(C)cc(C(=O)COC(=O)c3c(C)noc3C)c2C)cc1	10	11	-3%	-35	5
CSc1c[n+]2c(n1C)CCC2	5	0.9	3%	-31	9
COc1cccc2cc(-c3cn4cccc(C)c4n3)c(=O)oc12	?	-2.5	-29%	-23	·
COc1ccc(OC)c(CNC(=O)C2CCN(S(=O)(=O)N3CCC(C)CC3)CC2)c1	4	0.6	·	·	·
COc1ccc(C(=O)Nc2ccc(N3CCCC3)cc2)cc1Br	-1	-3.5	·	·	·
CCCCOc1ccc(C(=O)OC2CC(C)N(C)CC2C)cc1 (configuration not stated)	-1	3.1	7%	0	-23
COc1ccc(C(CNC(=O)C(CCSC)NC(=O)c2ccccc2OC)N2CCCCC2)cc1 (configuration not stated)	-4	1.4	·	·	·
Cc1onc(-c2ccccc2)c1C(=O)NNC(=S)NC(=O)/C=C/c1cccs1	5	13	5%	-11	-6
CC1CCN(S(=O)(=O)N2CCC(C(=O)NCc3ccc4c(c3)OCO4)CC2)CC1	-6	-0.1	-3%	-28	-12
O=C(Nc1cnc2ccccn2c1=O)c1ccc(Cl)cc1Cl	-4	-6.4	-4%	·	-2
CCN(CC(=O)Nc1ccc(C(C)=O)cc1)CC(=O)Nc1ccccc1C(F)(F)F	69	-0.5	2%	·	0
CCN(CC(=O)NC(=O)NCc1ccccc1)Cc1ccccc1	-8	2.4	·	·	·
CCCCn1nnc(NC(=S)NC(=O)c2ccc(OCC)c([N+](=O)[O-])c2)n1	86	-2.2	·	·	·
N#CCCN(Cc1cccnc1)C(=S)NC(=O)c1ccc(S(=O)(=O)N2CCCC2)cc1	-9	-6.1	-2%	·	15
O=C(NCc1cccc(C(F)(F)F)c1)c1cc(Cl)cc(Cl)c1	1	·	-7%	-14	-2
COc1ccc(C(=O)NCc2ccccc2OC)cc1	-4	0.4	3%	-21	2
COc1ccc(C2/C=C\CN(CC3CC3)CC(=O)N2Cc2ccc(F)cc2)cc1 (configuration not stated)	-1	-0.8	-11%	·	·
